From PubChem
Vaccinia inh: Vaccinia orthopox stage-specific inhibition; Vaccinia-infected cells, mCherry/Venus stage reporter fluorescence; hits give low values; some inactives read as strong as hits; activity change (mCherry), % (no concentration beside the values); hit rate 0.01% among 89,000; AID 1053133;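 active means mCherry past -33% and 40 or more points under the early reporter, replicates agreeing; inconclusive means past -33% without that gap or agreement; tested in A549 cells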;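 further: scaled between vehicle wells and reference inhibitor wells; 23 nL library stock went into each well; one replicate is shown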
Vaccinia inh Venus: second read-out of Vaccinia inh, no call of its own (marks repeat the call); activity change (Venus), %; measured here: Venus reporter, other viral stage;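 negative = less Venus signal; first of two replicates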
* hit, by the source's call; ? = inconclusive; · = not tested or not shown. A portion of the library; the hit share may differ from the screen's.

canonical_smiles | Vaccinia inh | Vaccinia inh Venus
C[C@@H]1CN([C@@H](C)CO)S(=O)(=O)c2ccc(C3=CCCCC3)cc2O[C@H]1CN(C)C(=O)CN(C)C | -30 | -32
CCC(=O)N1[C@H](CO)[C@H](c2ccc(-c3ccncc3)cc2)[C@@H]1CN(C)C(C)=O | 6 | 14
Cc1noc(C)c1NC(=O)N(C)C[C@@H]1Oc2ncc(C#CC3CCCC3)cc2C(=O)N([C@H](C)CO)C[C@H]1C | 17 | 2
Cc1ccc(S(=O)(=O)NCC[C@H]2CC[C@@H](NC(=O)c3cccnc3)[C@@H](CO)O2)cc1 | 2 | 2
Cc1noc(C)c1NC(=O)Nc1ccc2c(c1)C(=O)N([C@@H](C)CO)C[C@H](C)[C@@H](CN(C)S(=O)(=O)c1cn(C)cn1)OCCCC[C@H](C)O2 | 3 | 0
COCC#Cc1ccc([C@H]2[C@H](CO)N3CCCCN(Cc4cccnc4)C[C@@H]23)cc1 | 16 | 0
CCCNC(=O)N1CC2(CN(Cc3cccc(OC)c3)C2)c2c(n(C)c3cc(OC)ccc23)[C@H]1CO | -28 | -28
O=C1CNC[C@H]2[C@H](c3ccc(C4=CCCC4)cc3)[C@H](CO)N12 | -5 | -4
C[C@H]1CN([C@@H](C)CO)C(=O)c2cc(NS(C)(=O)=O)ccc2O[C@@H]1CN(C)Cc1ccc(C(=O)O)cc1 | 9 | 7
COc1ccc(S(=O)(=O)Nc2ccc3c(c2)C(=O)N([C@H](C)CO)C[C@@H](C)[C@@H](CN(C)Cc2ccncc2)OCCCC[C@@H](C)O3)cc1 | 22 | -11
C[C@@H]1CN([C@@H](C)CO)C(=O)c2cc(NC(=O)c3ccncc3)ccc2O[C@@H]1CN(C)Cc1ccccc1 | -32 | -5
C[C@@H]1CN([C@@H](C)CO)C(=O)Cc2cc(NS(=O)(=O)c3ccc(F)cc3)ccc2O[C@H]1CN(C)C(=O)Nc1cccc2ccccc12 | 20 | 11
CCS(=O)(=O)N1CCC2(CC1)CN(Cc1cc(F)ccc1F)[C@H](CO)c1c2c2ccc(OC)cc2n1C | -13 | -5
Cc1ccc(S(=O)(=O)N(C)C[C@H]2Oc3ccc(NS(=O)(=O)c4c(C)noc4C)cc3CC(=O)N([C@@H](C)CO)C[C@@H]2C)cc1 | 19 | 7
C[C@H](CO)N1C[C@H](C)[C@H](CN(C)C(=O)C2CCC2)Oc2cc(-c3cccnc3)ccc2S1(=O)=O | 5 | -9

Reprinted from the part before: seven compounds, followed by the next part.
canonical_smiles | Vaccinia inh | Vaccinia inh Venus
C[C@H]1CN([C@@H](C)CO)C(=O)c2cc(NS(C)(=O)=O)ccc2O[C@@H]1CN(C)Cc1ccc(C(=O)O)cc1 | 9 | 7
COc1ccc(S(=O)(=O)Nc2ccc3c(c2)C(=O)N([C@H](C)CO)C[C@@H](C)[C@@H](CN(C)Cc2ccncc2)OCCCC[C@@H](C)O3)cc1 | 22 | -11
C[C@@H]1CN([C@@H](C)CO)C(=O)c2cc(NC(=O)c3ccncc3)ccc2O[C@@H]1CN(C)Cc1ccccc1 | -32 | -5
C[C@@H]1CN([C@@H](C)CO)C(=O)Cc2cc(NS(=O)(=O)c3ccc(F)cc3)ccc2O[C@H]1CN(C)C(=O)Nc1cccc2ccccc12 | 20 | 11
CCS(=O)(=O)N1CCC2(CC1)CN(Cc1cc(F)ccc1F)[C@H](CO)c1c2c2ccc(OC)cc2n1C | -13 | -5
Cc1ccc(S(=O)(=O)N(C)C[C@H]2Oc3ccc(NS(=O)(=O)c4c(C)noc4C)cc3CC(=O)N([C@@H](C)CO)C[C@@H]2C)cc1 | 19 | 7
C[C@H](CO)N1C[C@H](C)[C@H](CN(C)C(=O)C2CCC2)Oc2cc(-c3cccnc3)ccc2S1(=O)=O | 5 | -9
COCC(=O)Nc1ccc2c(c1)C(=O)N(C)C[C@@H](OC)[C@@H](C)CN(Cc1ccccn1)[C@@H](C)CO2 | 1 | 6
C[C@H](CO)N1C[C@H](C)[C@H](CN(C)S(=O)(=O)c2cccs2)OCCCC[C@H](C)Oc2ccc(NS(=O)(=O)c3ccc(Cl)cc3)cc2C1=O | ? | ·
C[C@@H]1CCCCO[C@H](CN(C)C(=O)Nc2ccc(C(F)(F)F)cc2)[C@H](C)CN([C@H](C)CO)C(=O)c2cc(NS(=O)(=O)c3cn(C)cn3)ccc2O1 | -34 | -31
C[C@@H]1CN([C@@H](C)CO)C(=O)Cc2cc(NC(=O)Nc3ccc(F)cc3)ccc2O[C@H]1CN(C)Cc1ccc(C(=O)O)cc1 | 13 | 7
O=C(NC1CCCCC1)N1CC(=O)N2[C@H](C1)[C@@H](c1ccc(/C=C/c3ccccc3)cc1)[C@@H]2CO | ? | ·
C[C@H](CO)N1C[C@H](C)[C@H](CN(C)C(=O)Nc2ccc3c(c2)OCO3)Oc2c(NC(=O)Nc3ccc(F)cc3)cccc2C1=O | -23 | -12
COc1ccccc1S(=O)(=O)N(C)C[C@H]1Oc2cc(C#CCC(C)C)ccc2S(=O)(=O)N([C@@H](C)CO)C[C@H]1C | ? | ·
CCC(=O)N1CC[C@@H]2[C@H]1c1cc(-c3ccccc3F)ccc1N(C)[C@H]2CO | -14 | -14
C[C@@H](NC(=O)[C@@H]1[C@@H](CO)[C@@H]2Cn3c(cccc3=O)[C@H]1N2CCC(F)(F)F)c1ccccc1 | 4 | 4
O=C(C[C@@H]1C[C@@H]2c3cc(NC(=O)c4cccnc4)ccc3O[C@@H]2[C@H](CO)O1)NC1CCCCC1 | 13 | 9
CCCNC(=O)[C@H]1[C@H](CO)[C@H]2Cn3c(ccc(-c4cccc(OC)c4)c3=O)[C@@H]1N2CC | 3 | -4
C[C@H]1CN([C@@H](C)CO)C(=O)c2cc(C#CCN(C)C)cnc2O[C@H]1CN(C)C(=O)NC1CCCC1 | 11 | 4
C[C@@H]1CN([C@H](C)CO)C(=O)c2cc(NC(=O)Cc3cn(C)c4ccccc34)ccc2O[C@@H]1CN(C)S(=O)(=O)c1ccccc1 | -4 | 3
C[C@@H]1CN([C@@H](C)CO)C(=O)c2cc(NC(=O)Nc3cccc4ccccc34)ccc2O[C@@H](C)CCCCO[C@@H]1CN(C)C(=O)C1CCCCC1 | 20 | 14
O=C(C1CCCCC1)N1C[C@@H]2[C@H](c3ccccc31)[C@@H](CO)N2C(=O)Cc1ccccn1 | -22 | -12
C/C=C/c1ccc([C@H]2[C@@H](CO)N3C(=O)CN(C(=O)Nc4cc(F)ccc4F)C[C@@H]23)cc1 | -17 | -12
Cc1ccc(-c2cnc3c(c2)C(=O)N([C@H](C)CO)C[C@H](C)[C@H](CN(C)C)O3)cc1 | 13 | 4
CO[C@H]1CN(C)C(=O)c2cc(NS(C)(=O)=O)ccc2OC[C@@H](C)N(Cc2ccccc2)C[C@@H]1C | 1 | 14
COCC#Cc1ccc([C@H]2[C@@H](CO)N3CCCCN(S(=O)(=O)c4ccc(OC)cc4)C[C@H]23)cc1 | -10 | -13
O=C(C[C@@H]1CC[C@H]2[C@@H](COC[C@H](O)CN2Cc2ccc(F)cc2)O1)NCc1ccccc1Cl | -13 | -13
COc1ccc(C#Cc2cccc(-c3nc(C(=O)NCc4ccc5c(c4)OCO5)cc4c3[C@@H](CCO)N(S(=O)C(C)(C)C)C4)c2)cc1OC (stereo not given in full) | 2 | 12
COc1cccc(S(=O)(=O)N[C@@H]2C=C[C@H](CC(=O)NCc3ccc(Cl)cc3)O[C@@H]2CO)c1 | -1 | 5
C[C@H](CO)N1C[C@H](C)[C@H](CN(C)Cc2cncnc2)Oc2cc(-c3ccccc3F)ccc2S1(=O)=O | -23 | -18
CC(=O)N1CCCCN2[C@H](C1)[C@@H](c1ccc(-c3ccc(F)cc3)cc1)[C@@H]2CO | -2 | 0
CC(C)CC#Cc1ccc([C@@H]2[C@H](CO)N3C(=O)CN(C(=O)c4cnccn4)C[C@@H]23)cc1 | 18 | 1
C[C@@H]1CN([C@@H](C)CO)C(=O)Cc2cc(NC(=O)Nc3cccc4ccccc34)ccc2O[C@@H]1CN(C)Cc1ccc(C(=O)O)cc1 | 2 | -1
C[C@@H]1CCCCO[C@H](CN(C)Cc2ccc(C(F)(F)F)cc2)[C@H](C)CN([C@H](C)CO)C(=O)c2cc(NC(=O)NC3CCCCC3)ccc2O1 | -32 | -30
O=C(Nc1ccccc1F)N[C@H]1CC[C@H](CCNC(=O)C2CC2)O[C@@H]1CO | 6 | 6
C[C@@H]1CN([C@@H](C)CO)S(=O)(=O)c2ccc(/C=C/c3ccccc3)cc2O[C@H]1CN(C)C(=O)CN1CCOCC1 | -11 | -12
CCCN(C)C[C@@H]1Oc2cc(C#Cc3ccccc3)ccc2S(=O)(=O)N([C@@H](C)CO)C[C@@H]1C | -17 | -9
C[C@@H]1CCCCO[C@H](CN(C)Cc2ccccc2)[C@@H](C)CN([C@@H](C)CO)C(=O)c2cc(NC(=O)C3CCCCC3)ccc2O1 | ? | ·
C[C@H]1CCCCO[C@H](CN(C)S(=O)(=O)c2cccs2)[C@@H](C)CN([C@@H](C)CO)C(=O)c2cc(NS(=O)(=O)c3ccc(F)cc3)ccc2O1 | ? | ·
O=C(C[C@@H]1CC[C@@H]2[C@H](COC[C@H](O)CN2C(=O)c2ccncc2)O1)NCc1ccc(-c2ccccc2)cc1 | -1 | 3
C[C@@H]1CN([C@@H](C)CO)C(=O)c2cc(NC(=O)Cn3cnnn3)ccc2O[C@H]1CN(C)Cc1ccc(Oc2ccccc2)cc1 | 8 | 2
O=C(C[C@@H]1C[C@@H]2c3cc(NC(=O)Nc4ccc(F)cc4)ccc3O[C@@H]2[C@H](CO)O1)NC1CCCC1 | 4 | 4
O=C(C[C@@H]1CC[C@H]2[C@@H](COC[C@H](O)CN2C(=O)Nc2cc(Cl)cc(Cl)c2)O1)NCC1CC1 | -21 | -11
Cc1noc(C)c1S(=O)(=O)Nc1ccc2c(c1)C(=O)N([C@H](C)CO)C[C@@H](C)[C@@H](CN(C)C(=O)c1ccncc1)OCCCC[C@@H](C)O2 | 7 | 3
COCCNC(=O)C[C@@H]1C[C@@H]2c3cc(NC(=O)c4cccnc4)ccc3O[C@@H]2[C@@H](CO)O1 | 15 | 15
COc1ccc(CN(C)C[C@H]2Oc3ccc(NC(=O)Nc4ccccc4)cc3C(=O)N([C@H](C)CO)C[C@@H]2C)cc1 | -7 | -5
CCCNC(=O)N1CCC2(CC1)CN(C(=O)NC(C)C)[C@H](CO)c1c2c2ccc(OC)cc2n1C | 8 | 3
C[C@@H]1CN([C@H](C)CO)S(=O)(=O)c2ccc(C#C[C@@H](C)O)cc2O[C@@H]1CN(C)Cc1ccncc1 | 2 | 2
O=C(CN1CCOCC1)NCC[C@@H]1CC[C@@H](NC(=O)Nc2ccc(C(F)(F)F)cc2)[C@H](CO)O1 | -3 | 4
CCC(=O)Nc1ccc2c(c1)C(=O)N(C)C[C@@H](OC)[C@@H](C)CN(CCc1ccccc1)[C@H](C)CO2 | 7 | 3
CO[C@H]1CN(C)C(=O)c2ccc(NC(C)=O)cc2OC[C@@H](C)N(Cc2nccs2)C[C@H]1C | 7 | 8
Cc1ccccc1S(=O)(=O)N1CC[C@@H]2[C@H](CO)N(C)c3ccc(C#Cc4ccc(F)cc4)cc3[C@@H]21 | -3 | -2
Cc1noc(C)c1S(=O)(=O)Nc1ccc2c(c1)C(=O)N([C@@H](C)CO)C[C@H](C)[C@H](CN(C)Cc1ccc(Cl)c(Cl)c1)OCCCC[C@@H](C)O2 | ? | ·
Cc1noc(C)c1NC(=O)N(C)C[C@H]1Oc2ccc(NC(=O)Nc3ccc(F)cc3)cc2CC(=O)N([C@@H](C)CO)C[C@H]1C | 18 | 22
C[C@@H]1CN([C@H](C)CO)C(=O)Cc2cc(NC(=O)Nc3ccc(F)cc3)ccc2O[C@@H]1CN(C)Cc1ccc(-c2ccccc2)cc1 | ? | ·
O=C(N[C@H]1C=C[C@H](CC(=O)N2CCOCC2)O[C@H]1CO)c1cccc(F)c1 | 8 | -3
COc1ccccc1NC(=O)N1C[C@@H]2N[C@H](C1)C2c1ccc(-c2cccc(C(=O)N(C)C)c2)cc1 (stereo not given in full) | 2 | -5
CN1C(=O)c2cc(NC(=O)C3CCCCC3)ccc2OC[C@@H]2O[C@H](CC(=O)NCC3CCCCC3)CC[C@@H]21 | -24 | -14
C[C@@H]1CCCCO[C@@H](CN(C)C(=O)Nc2ccc3c(c2)OCO3)[C@H](C)CN([C@H](C)CO)C(=O)c2cc(NC(=O)Nc3ccc4c(c3)OCO4)ccc2O1 | -18 | -17
COc1ccc(NC(=O)Nc2ccc3c(c2)C(=O)N([C@@H](C)CO)C[C@H](C)[C@@H](CN(C)Cc2ccc(-c4ccccc4)cc2)O3)cc1 | -7 | -16
O=C(N[C@H]1C=C[C@H](CC(=O)N2CCCCC2)O[C@@H]1CO)c1ccc2c(c1)OCO2 | 6 | 13
COc1ccc(C#Cc2ccc([C@@H]3[C@@H](CO)N4CCCCN(C(=O)Cc5ccncc5)C[C@@H]34)cc2)cc1 | -5 | 3
CN1c2ccc(-c3cccc(C#N)c3)cc2[C@H]2[C@H](CCN2S(=O)(=O)c2ccccc2F)[C@@H]1CO | -4 | -6
O=C(c1cccnc1)N1C[C@@H]2[C@H](c3ccccc31)[C@@H](CO)N2C(=O)C1CC1 | 18 | 16
CN1c2ccc(C#Cc3cccc(F)c3)cc2[C@H]2[C@H](CCN2S(=O)(=O)c2ccccc2F)[C@@H]1CO | 16 | 13
CCCC(=O)Nc1ccc2c(c1)C(=O)N(C)C[C@@H](OC)[C@@H](C)CN(C(=O)CN(C)C)[C@@H](C)CO2 | 2 | -4
CN(C)CCCNC(=O)C[C@@H]1C=C[C@H](NS(=O)(=O)c2ccccc2)[C@H](CO)O1 | -3 | -2
